2A firefly: lowers the firefly signal of an FMDV 2A StopGo reporter; HEK cells with a luciferase reporter of 2A StopGo recoding; 120,000 tested, 0.23% active; Potency, µM (highest dose often 57.5 µM), for the others: at the top dose signal change, negative = less light; active = well fitted falling curve with a large enough effect; inconclusive = small, poorly fitted or top-dose-only effect; inactive = no such curve, though single readings can be large or run the other way; further: nearly all actives have a fitted effect of over 60% in size; overnight with compound
2A Renilla: FMDV 2A StopGo reporter, Renilla signal. Potency, µM (doses to about 57.5 µM), for inactives: top-dose signal change, negative = less light. HEK cells with a luciferase reporter of 2A StopGo recoding. 120,000 tested, 0.32% active; active means well fitted falling curve with a large enough effect; inconclusive means small, poorly fitted or top-dose-only effect; inactive means no such curve, though single readings can be large or run the other way; further: nearly all actives have a fitted effect of over 55% in size; overnight with compound
* marks the source's active call; other numbers are inactive results; ? = inconclusive; & = joins results of further samples; [ ] = remark or other dose. On the % scale 0 is the no-effect control and ±100 the full control effect; potency means the concentration at half of the fitted maximal effect. A portion of the library (hit frequency here may not be typical).

SMILES | 2A firefly | 2A Renilla
COC(=O)c1ccc(NC(=O)c2cnccn2)cc1 | 98%[activator] | -5%
Cc1cc(-n2c(SCc3ccccc3F)nc3[nH]ncc3c2=O)ccc1Cl | 28% | -6%
Cc1c(C(=O)Nc2ccc(F)cc2)sc2nc[nH]c(=O)c12 | 70%[activator] | -16%
CC(NC(=O)CSCC(N)=O)c1ccc(Cl)s1 (centres undefined) | 3% | -8%[1.06 µM]
O=C(CCn1c(=O)c2ccccc2n(CC(=O)Nc2cccc(F)c2)c1=O)NCCc1ccccc1 | -7% | -5%
Cc1nc(-c2ccc(S(=O)(=O)Nc3ccc(Cl)cc3C)cc2)co1 | ? | 20%
Nc1nn(Cc2ccc(Cl)cc2Cl)cc1Br | 6% | -12%
Cc1cc(C(=O)OCCCN(C)C2CN(Cc3cn(Cc4ccccc4C(F)(F)F)nn3)S(=O)(=O)C2)no1 (centres undefined) | 4% | -3%
CCn1c(CCC(N)=O)nnc1SC(C)C(=O)c1c[nH]c2ccccc12 (centres undefined) | 8% | -7%
COc1ccc(C2=C(C)C(N3CCC(C(=O)NCc4ccco4)CC3)=NS2(=O)=O)cc1 | -10% | 17%
CCN(Cc1ccco1)C(=O)c1cc2ccc(OC)cc2[nH]1 | 165%[activator] | 132%[activator]
Cc1ccc2c(c1)C(O)(CC(=O)c1ccc(F)cc1)C(=O)N2 (centres undefined) | 0% | 10%[1.06 µM]
O=C(c1cccnc1-c1nc2ccccc2s1)N1CCOCC1 | 16% | 5%
Cc1ccc(CNCc2ccccc2)s1 | 20%&30% | 0%&-10%
Cc1oc(-c2nc(C#N)c(NC3CC3)o2)cc1S(=O)(=O)N(C)C | 26% | -12%
O=C(Nc1ccc(Cl)cc1C(F)(F)F)c1ccc(F)cc1 | 0% | 16%
CCOC(=O)CN(CC(=O)NC1(C#N)CCCC1)C1CC1 | -5% | -2%
C[N+]12CCC(CC1)C(OC(=O)C(O)(c1ccccc1)c1ccccc1)C2 (centres undefined) | -10%[11.5 µM] | -7%
Cc1cc(C)c(Cn2c(C(O)c3ccccc3)nc3ccccc32)c(C)c1 (centres undefined) | 1% | 63%[activator]
CCN(CC)c1nc2c(S(=O)(=O)c3ccc(C)cc3)nnn2c2ccsc12 | -29% | -3%
Cc1ccc(OCc2ccc(-c3nc(C#N)c(N4CCC(C)CC4)o3)o2)cc1 | 25% | -2%
N#C/C(=C/C=C/c1ccccc1)C(=O)Nc1ccc(N2CCOCC2)cc1 | 2% | -13%
CCCC1CCC(c2ccc(C(=O)Nc3ccc(OC)cc3)cc2)CC1 (centres undefined) | 89%[activator] | 3%
CCCc1nn2c(=O)cc(COC(=O)c3cccc(NC(=O)CCc4ccccc4)c3)nc2s1 | 11% | 3%
COc1ccccc1CNC(=O)CCn1c(=O)c2ccccc2n(CC(=O)Nc2ccc(Br)cc2F)c1=O | -20% | -15%
C=Cc1ccc(CN2C(=O)N(c3ccc(C)cc3)S(=O)(=O)c3ccccc32)cc1 | 6% | 8%
Cn1c(=O)c2c(nc(Cl)n2CC(=O)NCC23CC4CC(CC(C4)C2)C3)n(C)c1=O | 5% | 1%
CC(C)(C)OC(=O)N1CCC(c2c(C(=O)N3CCN(C(=O)c4ccco4)CC3)cnn2-c2cccc(Cl)c2)CC1 | 34%[activator] | 12%
COc1c(C)cnc(CN2CCN(C(C(=O)O)c3c[nH]c4ccc(CO)cc34)CC2)c1C (centres undefined) | 5% | -4%
Cc1ccc(-c2nc3ccccn3c2Nc2ccc3c(c2)OCCO3)o1 | 87%[activator] | -12%
CN(CCO)Cc1cc(=O)oc2cc3c(cc12)CCC3 | 32%[activator] | 5%
COc1ccc(C(=O)Cn2c(=O)oc3cc(S(=O)(=O)N4CCOCC4)ccc32)cc1F | -6% | -8%
CCOc1ccc(NC(=O)c2ncoc2-c2cccs2)cc1 | 4% | 5%
CCc1ccc(NC(=O)Cn2ccn(-c3cccc(OC)c3)c(=O)c2=O)cc1 | 1% | -9%
COc1ccc2c(c1)Cc1sc(NC(=O)c3cccc(C)c3)nc1-2 | 73%[activator] | 7%
Cc1cc(C)c2c(n1)SCC(=O)N2CCCC(=O)NCc1ccccc1Br | 0% | 29%
O=C(CC(=O)c1ccc(Cl)cc1)c1ccc(Cl)cc1 | 80%[activator] | 15%
COc1ccc(OC)c(/C=C/c2nc3ccccc3c(=O)n2-c2ccc(F)c(Cl)c2)c1 | -17% | 31%[activator]
COc1ccc(-n2c(=O)c3c4c(sc3n(Cc3c(F)cccc3Cl)c2=O)CN(C(C)=O)CC4)cc1OC | -16% | -8%
COc1ccc(N(C(C)C(=O)N(C)Cc2ccccc2)S(C)(=O)=O)cc1 (centres undefined) | -3% | -3%
COc1ccc(-c2csc(N3N=C(C)CC3c3cc(OC)c(OC)c(OC)c3)n2)cc1 (centres undefined) | 15% | 32%
COc1cc(NC(=O)CN2C(=O)c3ccccc3Sc3ccc(C(=O)N4CCCC4)cc32)cc(OC)c1 | -10% | 17%
Cn1nc(C(=O)NCCc2cccs2)c2ccccc2c1=O | 0% | 42%[activator]
O=C(COC(=O)c1ccc(F)cc1[N+](=O)[O-])c1ccc(Br)cc1 | 34%[activator] | -2%
O=C(NCCc1ccc(Cl)cc1)c1cc(-c2ccc(Cl)cc2)n[nH]1 | -9% | 60%[activator]
CCc1nccn1S(=O)(=O)c1cc(Br)ccc1Br | -5% | 12%
O=c1c2cc3c(cc2n(Cc2cccc(F)c2)c(=O)n1Cc1nc(-c2ccccc2)no1)OCO3 | -14% | 7%
COCc1cc(C)nc2c1C(=O)NC(c1ccc(C)cc1)N2Cc1ccccc1 (centres undefined) | -5% | -5%
CCN(CC)C(=O)CN1CCN(c2nc(-c3ccccn3)nc3scc(-c4ccccc4)c23)CC1 | 0% | 0%
CCOc1ccc(NCc2cccn2-c2nnc(N3CCC(C(=O)NCCc4ccc(OCC)c(OCC)c4)CC3)s2)cc1 | ? | ?
CCCNC(=O)C(N)Cc1c[nH]c2ccccc12 (centres undefined) | 3% | 9%
Cc1nnc(N2CCN(C(=O)Nc3ccccc3)CC2)c2nn(-c3ccc(Cl)cc3)c(C)c12 | -11% | -6%
CCN(CCCNC(=O)Cn1ncc2c([nH]c3ccc(C)cc32)c1=O)Cc1ccccc1 | -15% | -13%
CCc1ccccc1NC(=O)CSc1nc2ncccc2o1 | 4% | -2%
CCOc1cc(C(=O)NCc2ccc3c(c2)CCN3C(=O)c2ccc(F)cc2)cc(OCC)c1OCC | -12% | ?
Cc1ccccc1CC(=O)NC(C)C1CCCO1 (centres undefined) | 7% | 1%
COc1ccccc1CNC(=O)c1oc2c(c1C)-c1nn(Cc3ccc(Cl)cc3)cc1CC2 | -20% | -3%
CCc1ccccc1NC(=O)Cn1nnc(-c2nc(-c3ccncc3)no2)c1N | 22% | -3%
CC(C)(C)c1ccc(-c2noc(CCC(=O)Nc3cccc(Cl)c3)n2)cc1 | -99% | -12%
Cc1ccc(C(=O)N2CCCC2)cc1S(=O)(=O)N1CCCCC1 | 5% | 91%[activator]

Following part
SMILES | 2A firefly | 2A Renilla
CCCN(CCC)CCNC(=O)CN1C(=O)COc2ccc(S(=O)(=O)N3CCC(C)CC3)cc21 | -18% | -8%
O=C(Cn1cc(Br)c(=O)[nH]c1=O)N1CCCCCC1 | -8% | -6%
CC1=C(C(=O)N2CCN(c3ccccc3)CC2)C2(CCCCC2)OC1=O | 0% | 33%[activator]
Cc1ccc(CNC(=O)C(=O)NCC(c2cccs2)S(=O)(=O)c2cccs2)cc1 (centres undefined) | -28% | -15%
Nc1nccnc1C(=O)NCc1ccc(C(F)(F)F)cc1 | -28% | ?
Cc1ccc(C(=O)Nc2ccccc2)cc1S(=O)(=O)N1CCCC1 | 205%[activator] | 26%
CC(NC(=O)c1ccccc1C(F)(F)F)C1CC2CCC1C2 (centres undefined) | 5% | 0%[1.06 µM]
N#Cc1cc2c(nc1SCC(=O)Nc1ccc(F)c(Cl)c1)C1CCN2CC1 | 92%[activator] | -3%
Cc1cc(C(=O)OCC(=O)NC(=O)c2ccccc2)c2ccccc2n1 | -8% | -11%
Cc1ccsc1CNCCCN(C)C | -8% | -12%
COc1cccc(C(=O)N2CC(=O)Nc3ccc(C)cc3C2c2ccc(F)cc2)c1OC (centres undefined) | 14% | -8%
CCCOc1ccc(-c2cccc(NS(=O)(=O)c3ccc(CC)cc3)c2)nn1 | -14% | 129%[activator]
COc1ccc2c(=O)cc(-c3ccc(C)cc3)oc2c1 | 202%[activator] | 30%[activator]
CCOC(=O)C1(C)C=C(Nc2ccc(C(N)=O)cc2)C(=O)N1c1ccccc1 (centres undefined) | 6% | -4%
O=C(CNS(=O)(=O)c1cccs1)N1CCN(c2ccccc2Cl)CC1 | 86%[activator] | 5%
Oc1ccc(Cl)cc1C=NCc1cccc(C(F)(F)F)c1 | 2% | 1%
CCOC(=O)c1c(NC(=O)CS(=O)(=O)c2ccc(Cl)cc2)sc2c1CCCC2 | -17% | -13%
Cc1cc(=O)oc2ccc(OCC(=O)Nc3ccc4c(c3)OCCO4)cc12 | 120%[activator] | 0%
COc1ccc(C(=O)N2CCN(CC(=O)N3CCOCC3)CC2)cc1 | -14%[11.5 µM] | -9%
COc1ccc(Cn2c(C)c3c(=O)n(-c4ccc(Cl)cc4)[nH]c3cc2=O)cc1 | -2% | -9%

No new results follow: 3 of the compounds above.
SMILES | 2A firefly | 2A Renilla
CC(NC(=O)c1ccccc1C(F)(F)F)C1CC2CCC1C2 (centres undefined) | 5% | 0%[1.06 µM]
N#Cc1cc2c(nc1SCC(=O)Nc1ccc(F)c(Cl)c1)C1CCN2CC1 | 92%[activator] | -3%
Cc1cc(C(=O)OCC(=O)NC(=O)c2ccccc2)c2ccccc2n1 | -8% | -11%

Compound profiles, from the list above. Order of screens: 2A firefly, 2A Renilla
O=C(CCn1c(=O)c2ccccc2n(CC(=O)Nc2cccc(F)c2)c1=O)NCCc1ccccc1 in the list: -7%, -5%
Nc1nn(Cc2ccc(Cl)cc2Cl)cc1Br in the list: 6%, -12%
Cc1ccccc1CC(=O)NC(C)C1CCCO1 (centres undefined) in the list: 7%, 1%
Cn1c(=O)c2c(nc(Cl)n2CC(=O)NCC23CC4CC(CC(C4)C2)C3)n(C)c1=O in the list: 5%, 1%

Remaining list, next part
SMILES | 2A firefly | 2A Renilla
COc1ccc(-c2cc3nc(-c4ccc(C)cc4)cc(C(F)(F)F)n3n2)cc1 | -10% | -1%
Cc1cc(C)cc(-n2ncc3c(OCC(=O)NC4CCS(=O)(=O)C4)ncnc32)c1 (centres undefined) | 4% | -2%
Cc1sc2ncn(CCC(=O)NCc3ccc(CN4CCCCC4)cc3)c(=O)c2c1C | 3% | -6%
N#Cc1nc(/C=C/c2ccc(Cl)cc2)oc1N1CCN(C(=O)c2ccco2)CC1 | -6% | 1%
CCCCOc1ccc(C(=O)N2CCN(CCc3ccncc3)CC2)cc1 | 1% | -3%
CC(C)(C)NC(=O)c1nn(-c2ccccc2)c(=O)c2ccccc12 | -1% | 5%
CCOC(=O)Cn1c(=O)c2c3c(sc2n(CCN2CCCC2)c1=O)CC(C)CC3 (centres undefined) | -10% | -23%
COc1ccccc1N1CCN(C(=O)CCNS(=O)(=O)c2ccc3[nH]c(=O)ccc3c2)CC1 | 3% | -4%
COc1ccc(C(=O)c2cn(CC(=O)Nc3cc(C)ccc3C)c3nc(C)ccc3c2=O)cc1 | 2% | -2%
N#CC1=C(N)Oc2nc(SCc3ccccc3Cl)nc(N)c2C1c1ccccc1F (centres undefined) | ? | ?
CCCCCOc1ccc(C(=O)Nc2ccc(-c3ccccc3)cc2)cc1 | 6% | -2%
CCOCCCNC(=O)CS(=O)Cc1nc(-c2cccc(C)c2)oc1C (centres undefined) | 4% | -3%
COc1ccc(C(=O)Nc2ccccc2-c2nc(-c3ccc(OC)cc3)no2)cc1 | 51%[activator] | -1%
CCOC(=O)COc1ccc2c(=O)c(-c3ccc(Br)cc3)c(C(F)(F)F)oc2c1 | 0% | -2%
O=S(=O)(NCCc1csc2nc(-c3ccccc3)nn12)c1ccc(Oc2ccccc2)cc1 | ? | 11%
CCOc1ccc(NC(=O)CCSc2nc(-c3ccc4c(c3)OCO4)cc(C(F)(F)F)n2)cc1 | -5% | -3%
O=C(CCC(=O)N1CC2CCCN2c2ccccc21)NCc1ccccc1 (centres undefined) | -27% | -5%
O=C(COc1ccc([N+](=O)[O-])cc1)Nc1ccc2oc(-c3ccccc3Br)nc2c1 | 50%[activator] | 5%
COc1ccc(CCNC(=O)Nc2cccc(CN3CCOC3=O)c2)cc1 | 0% | ?
O=C(CC(=O)c1cccc(Cl)c1)c1cccc(Cl)c1 | 36%[activator] | -16%[1.06 µM]

Among those listed so far, 3 contain a tert-butyl group:
SMILES | 2A firefly | 2A Renilla
CC(C)(C)OC(=O)N1CCC(c2c(C(=O)N3CCN(C(=O)c4ccco4)CC3)cnn2-c2cccc(Cl)c2)CC1 | 34%[activator] | 12%
CC(C)(C)c1ccc(-c2noc(CCC(=O)Nc3cccc(Cl)c3)n2)cc1 | -99% | -12%
CC(C)(C)NC(=O)c1nn(-c2ccccc2)c(=O)c2ccccc12 | -1% | 5%

Continuation:
SMILES | 2A firefly | 2A Renilla
CC(C)c1ccc(NC(=O)c2ccc(F)c(S(=O)(=O)N3CCCCCC3)c2)cc1 | -6% | 8%
Cc1ccc(Cn2ccnc2SCC(=O)Nc2ccc3c(c2)OCO3)cc1 | 17% | 23%
c1coc(CNCc2cccc3ccccc23)c1 | 62%[activator] | 10%
COc1ccc2c(C)c(CC(=O)N3CCCCC3)c(=O)oc2c1C | 7% | 1%
CCC(=O)N1c2ccc(S(=O)(=O)CCC(=O)Nc3ccc(OC)cc3OC)cc2CC1C (centres undefined) | -17% | -4%

Assay outcomes deposited in PubChem BioAssay by National Center for Advancing Translational Sciences (NCATS).
